Rango-impB inh: qHTS Assay for Inhibitors of Rango (Ran-regulated importin-beta cargo) - Importin beta complex formation. AID 540263, 2011. Rango CFP/YFP FRET sensor + importin beta, 45 min. 340,000 compounds, 0.031% hits. Potency, µM (doses to about 92.2 µM), for inactives: at the top dose inhibition of complex formation. Importin subunit beta-1 (Homo sapiens), Q14974; active = rising FRET ratio curve, often small or poorly fitted; inconclusive = mostly compound fluorescence or quenching in the first reads; inactive = flat curves in all reads;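 also: potency is read from the fitted curve at half-maximal effect; 0% = DMSO wells and 100% = buffer wells lacking importin beta; nearly all actives have a fitted effect of over 15% in size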
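Inhibition scored from the CFP 486 nm/YFP 530 nm FRET ratio 45 min after adding 0.125 microM importin beta to 50 nM Rango biosensor preincubated 5 min with compound (room temperature, PBS with DTT, Tween-20, BSA). No-importin wells as positive control.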
GLA inh pH 4.5: qHTS Assay for Inhibitors of Human alpha-Galactosidase at pH 4.5; Alpha-galactosidase A (Homo sapiens), P06280; purified enzyme, 4-MU-alpha-Gal fluorescence, pH 4.5; activity change, negative = inhibition, % at 105 µM; 230,000 tested, under 10 active; AID 1467, 2008; inconclusive = small, poorly fitted or top-dose-only inhibition, or a rising curve; inactive = flat fitted curve, though single readings scatter; no compound was filed as active;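 also: 0% = full activity with enzyme and -100% = basal without enzyme; dose as in the result columns while the protocol names 77 µM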
Target sequence (P06280 whole entry, looked up): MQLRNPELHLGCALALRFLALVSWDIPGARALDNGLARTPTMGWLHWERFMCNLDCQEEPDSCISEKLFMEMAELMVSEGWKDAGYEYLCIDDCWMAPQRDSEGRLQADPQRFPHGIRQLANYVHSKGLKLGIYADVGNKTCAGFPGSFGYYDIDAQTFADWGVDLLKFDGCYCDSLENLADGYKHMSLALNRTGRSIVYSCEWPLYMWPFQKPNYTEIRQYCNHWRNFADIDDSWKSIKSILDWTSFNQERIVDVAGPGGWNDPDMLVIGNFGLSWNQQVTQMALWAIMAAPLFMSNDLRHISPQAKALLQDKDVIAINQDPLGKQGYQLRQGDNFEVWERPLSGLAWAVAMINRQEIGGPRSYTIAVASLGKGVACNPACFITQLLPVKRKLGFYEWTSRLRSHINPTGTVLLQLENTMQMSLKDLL
miR-21 FLuc: qHTS Assay for Modulators of miRNAs and/orActivators of miR-21. HeLa miR-21 FLuc reporter, luciferase, 48 h. Potency, µM (doses to about 38.3 µM), for the others: top-dose reporter change, positive = more light. 340,000 tested, under 10 active; active = well fitted rising curve with a large enough effect; inconclusive = small, poorly fitted or top-dose-only effect; inactive = no such curve, though single readings can be large or run the other way;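 also: % of control where 0% means no effect; miR-21 action dims this reporter so a rising signal means less miR-21 action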
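HeLa cells stably expressing CMV-driven firefly luciferase with a downstream miR-21 binding sequence, endogenously expressing miR-21, were treated with titrations (up to about 40uM final) for 48 hours at 37 degree Celsius. Luciferase luminescence was read after lysis.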
Rango dissoc inh: qHTS Assay for Inhibitors of RanGTP induced Rango (Ran-regulated importin-beta cargo) - Importin beta complex dissociation; AID 540253, 2011; Potency, µM (series often up to 46.1 µM), for the others: at the highest dose activity change, negative = inhibition; 340,000 compounds, 0.071% hits; Snurportin-1 (Homo sapiens) + GTP-binding nuclear protein Ran (Homo sapiens) + Importin …; Biochemical FRET Rango-importin beta, RanGTP-induced dissociation; active means falling FRET ratio curve, often poorly fitted, with flat reads before Ran was added; inconclusive means other falling curves, or compound fluorescence or quenching; inactive means flat or rising ratio curve;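 also: potency is read from the fitted curve at half-maximal effect; % of control where 0% means no effect; nearly all actives have a fitted effect of over 45% in size; -100% = wells without RanGTP and RCC1; the record marks most hits as doubtful in a second field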
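Two FRET readings bracket the reaction: one 5 min after compound meets Rango–importin beta, another 45 min after RanGTP-RCC1 (0.6 uM Ran, 0.2 uM RCC1, 2 mM GTP) is added. Only the second defines inhibition.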
An asterisk follows results filed as active; ? = inconclusive; . = no result given; & = joins results of further samples.

SMILES | Rango-impB inh | GLA inh pH 4.5 | miR-21 FLuc | Rango dissoc inh
C/C(CC(=O)Nc1cccc(C(F)(F)F)c1)=N\NC(=O)Cc1ccccc1 | -1.6% | 3 | -7% | -1%
O=C(COc1ccc(Cl)cc1)N1CCN(C(=O)c2cccc(F)c2)CC1 | 1.7% | -14 | -1% | 8%
C/C(=N\NC(=O)c1c(C)nc2ccccn12)c1ccc(C(C)(C)C)cc1 | -3.2% | . | 0% | 16%
COCOc1ccc(-c2cc(=O)c3c(OCOC)cc(OCOC)cc3o2)cc1 | 2.2% | . | . | -11%
O=C(NCC1CCCO1)C1CCC(=O)N1CCc1ccccc1 (stereo not drawn) | 0.0% | 13 | 0% | 6%
CCOc1ccccc1NC(=O)COn1nnc2ccc(Cl)cc21 | -2.9% | 3 | -1% | 0%
CC(C)(C)N1NC2(CCCCC2)NC1=S | -2.7% | 4 | -4% | 2%
Cc1cccc(/C(N)=N/OC(=O)c2cccnc2)c1 | -1.1% | -3 | -56% | -3%
N/C(=N\OS(=O)(=O)c1ccccc1)c1ccncc1 | 4.1% | 5 | 0% | 0%
CCCN(CCO)Cc1ccc(Cl)c(Cl)c1 | -0.4% | -23 | -2% | 11%
O=C(CNC(=O)C1CCCCC1)NNC(=O)c1ccc(Cl)cc1Cl | 1.4% | . | -6% | 5%
O=S(=O)(Nc1ccccc1N1CCOCC1)c1c(F)cc(F)cc1Br | -0.4% | . | . | 9%
COc1ccc(Cl)cc1NCCC(O)c1ccc(F)cc1 (stereo not drawn) | -4.0% | . | -6% | 7%
Cc1cc(C(=O)Nc2ccccc2)oc1C | -5.9% | 7 | -47% | 6%
CCOC(=O)N(NC(=O)C(O)(C(C)C)C(C)C)c1ccccc1 | ? | 2 | 1% | 3%
Nc1nnc(SCC(=O)N2CCN(c3cccc(Cl)c3)CC2)n1-c1ccccc1 | 0.5% | . | . | 20%
COC(=O)c1cc(S(=O)(=O)N2CCOCC2)c(Cl)cc1N1CCOCC1 | -4.9% | -7 | -11% | 5%
N#CC1=C(N)SC2(CCCCC2)SC1c1ccccc1 (stereo not drawn) | 0.2% | 6 | -28% | 1%
Cc1ccc(S(=O)(=O)n2c(CN3CCCC(C)C3)nc3ccccc32)cc1 (stereo not drawn) | ? | -13 | -4% | -19%
COc1ccc2[nH]c3c(N4CC(C)OC(C)C4)ncnc3c2c1 (stereo not drawn) | 2.0% | 7 | -11% | -14%
O=C(Nc1ccc([N+](=O)[O-])cc1)C1COc2ccccc2O1 (stereo not drawn) | 4.8% | . | -19% | 7%
Cn1cc(CN2CCCC(C(=O)c3ccc(-c4ccccc4)c(F)c3)C2)cn1 (stereo not drawn) | 3.1% | -9 | 3% | -8%
CCCNC(=O)c1ccc(N2CCC3(CC2)CC(c2ccccc2)=NO3)c(N)c1 | -3.4% | . | 1% | 0%
CCOc1ccc(CCNC(=O)COC(=O)c2nccnc2N)cc1OCC | -0.2% | . | . | 11%
CS(=O)(=O)N(Cc1ccc(C(=O)NN=C2CCCC2)cc1)c1ccccc1 | -5.5% | 4 | -11% | 1%
COc1ccccc1N1CCN(C(=O)CCNC(=O)c2ccco2)CC1 | 2.9% | . | . | 0%
CCn1c(SCC(=O)Nc2ccccc2)nc2ccccc2c1=O | -0.1% | . | 4% | -16%
O=C(NCc1ccc2c(c1)OCO2)C1CCC(CNc2c(N3CCCC3)c(=O)c2=O)CC1 (stereo not drawn) | 2.7% | -11 | -3% | 9%
COc1ccc(NC(=O)CCC(=O)c2ccc(Cl)cc2)cn1 | ? | . | . | -26%
S=C(NCCNCc1ccccc1)NC1CCCCC1 | . | -3 | ? | .
Cc1ccc(-n2nc(C)c3c2OC(N)=C(C#N)C3c2ccncc2)cc1 (stereo not drawn) | -10% | -4 | -1% | -15%
Cc1ccc(Nc2nc3c(s2)CCC3)c(C)c1 | -1.3% | -4 | -54% | 2%
C=CCC(NCc1ccccc1)c1ccccc1 (stereo not drawn) | -3.0% | 6 | -8% | -12%
CN1C(=O)N(CC(=O)N2CCN(c3ncccn3)CC2)C(=O)C12CCCCC2 | -0.9% | . | . | 0%
C/C(N)=C(/C#N)C(=O)COC(=O)c1cc(-c2cccc(Br)c2)nc2ccccc12 | 0.0% | 1 | 1% | 6%
O=C(CCN1c2ccccc2Sc2ccccc21)Oc1ccccc1 | 3.4% | 2 | -6% | 12%
Cc1nnc(C)n1/N=C/c1ccc2c(c1)OCCO2 | -3.9% | -3 | -1% | -6%
Cn1cccc1C(=O)NNC(=O)c1ccccc1Br | 0.9% | . | . | -28%
O=C(CSc1nc2ccc(Cl)cc2[nH]1)c1ccc2c(c1)OCO2 | 0.9% | -7 | -15% | 3%
CN(C)CCC(C(=O)c1ccccc1)c1ccncc1 (stereo not drawn) | -3.2% | . | . | 3%
O=C(NCc1ccco1)c1ccc([N+](=O)[O-])o1 | -3.5% | 1 | 7% | 10%
CCOC(=O)C1CCN(S(=O)(=O)c2ccc3c(c2)CCCN3C(C)=O)CC1 | -0.2% | -2 | -1% | -19%
O=[N+]([O-])c1ccc(N2CCN(S(=O)(=O)c3ccccc3)CC2)cc1 | ? | . | -1% | 5%
CN(C)CCNC(=O)Cn1ccc2cc(S(=O)(=O)N3CCCCCC3)ccc21 | -3.9% | . | -7%&-8% | -14%
Cc1noc(N)c1C(=O)Nc1ccccc1F | -0.4% | 8 | 1% | -5%
COc1ccc(CCNC(=O)c2cc(-c3cc(Cl)ccc3O)n[nH]2)cc1OC | -3.1% | -7 | 27% | 1%
Cc1cc(C)c2c(N)c(C(=O)c3ccc(Cl)cc3Cl)sc2n1 | ? | -10 | -10% | ?
CC(C)(C)CN1CCN(Cc2cccnc2)CC1CCO (stereo not drawn) | -1.2% | . | -2% | -14%
Oc1ccc(Br)cc1-c1cc(-c2ccccc2)n[nH]1 | -1.8% | -6 | 15% | 14%
COc1ccc(F)cc1C(=O)C1CCCN(C(=O)CCc2ccccn2)C1 (stereo not drawn) | 4.3% | 3 | -10% | 1%
Additional records follow.
SMILES | Rango-impB inh | GLA inh pH 4.5 | miR-21 FLuc | Rango dissoc inh
O=c1cc(-c2ccccc2)cc(-c2ccccc2)n1O | 0.9% | . | . | 40%
N/C(=N\OC(=O)c1ccc2c(c1)OCO2)c1ccc([N+](=O)[O-])cc1 | -0.5% | -5 | -17% | 1%
CCC(C)(C)C1CCC2(CC1)NC(=O)N(CC(=O)Nc1cc(C(F)(F)F)ccc1N1CCOCC1)C2=O (stereo not drawn) | -1.2% | . | 0% | 12%
COc1ccc(NC(=O)C(=O)NCC(c2ccco2)N2CCc3ccccc32)cc1 (stereo not drawn) | -1.3% | . | . | -19%
CCC(=O)NCc1c(Cl)cccc1-n1cccc1 | 0.6% | 2 | 0% | -2%
Cc1ccc(-n2nc3c(c2NC(=O)c2ccc4c(c2)OCO4)CSC3)c(C)c1 | -2.6% | 10 | 1% | -5%
Cc1ccc(NC2Sc3ccccc3NC2=O)cc1Cl (stereo not drawn) | 1.6% | 2 | -10% | 9%
CS(=O)(=O)c1ccc2nc(NC(=O)CCNC(=O)c3ccc([N+](=O)[O-])cc3)sc2c1 | 0.0% | . | . | 0%
COc1ccc(-c2cnc[nH]2)cc1 | -5.1% | 3 | -16% | -25%
Cc1ccc(NC(=O)CCNC(=O)c2ccc(Br)cc2)cc1S(=O)(=O)N1CCCCCC1 | -0.7% | . | . | -2%

Looked up by compound from the entries so far (seven):
SMILES | Rango-impB inh | GLA inh pH 4.5 | miR-21 FLuc | Rango dissoc inh
Cc1ccc(NC(=O)CCNC(=O)c2ccc(Br)cc2)cc1S(=O)(=O)N1CCCCCC1 | -0.7% | . | . | -2%
CCC(=O)NCc1c(Cl)cccc1-n1cccc1 | 0.6% | 2 | 0% | -2%
CCC(C)(C)C1CCC2(CC1)NC(=O)N(CC(=O)Nc1cc(C(F)(F)F)ccc1N1CCOCC1)C2=O (stereo not drawn) | -1.2% | . | 0% | 12%
O=c1cc(-c2ccccc2)cc(-c2ccccc2)n1O | 0.9% | . | . | 40%
COc1ccc(NC(=O)C(=O)NCC(c2ccco2)N2CCc3ccccc32)cc1 (stereo not drawn) | -1.3% | . | . | -19%
Cc1ccc(-n2nc3c(c2NC(=O)c2ccc4c(c2)OCO4)CSC3)c(C)c1 | -2.6% | 10 | 1% | -5%
COc1ccc(-c2cnc[nH]2)cc1 | -5.1% | 3 | -16% | -25%

The listing continues.
SMILES | Rango-impB inh | GLA inh pH 4.5 | miR-21 FLuc | Rango dissoc inh
COc1ccccc1C1C=C(c2ccc(Cl)cc2)Nc2nc(N3C(=O)CCC3=O)nn21 (stereo not drawn) | ? | 6 | -3% | ?
CN(C)C(=O)c1ccccc1Sc1ccc(Cl)cc1Cl | -0.5% | -8 | -12% | -10%
COC(=O)[C@@]12CCCCN1[C@H](c1ccc(-c3ccc(C(C)=O)cc3)cc1)[C@H]1C(=O)N(C)C(=O)[C@H]12 | -3.7% | . | . | -6%
CC(C)C(NC(=O)c1ccc(Cl)cc1)C(=O)NC1=NCCS1 (stereo not drawn) | -0.8% | 6 | -2% | -2%
O=C(OCC(=O)N1CCN(C(=O)c2ccco2)CC1)c1cc(-c2ccc(F)cc2)nc2ccccc12 | 2.0% | -8 | 12% | -4%
CCC(C)C(NC(=O)C(N)CC(C)C)C(=O)NC(CCC(=O)OCc1ccccc1)C(N)=O (stereo not drawn) | -1.5% | 7 | 0% | 5%
O=C(O)c1ccccc1NSc1ccccc1[N+](=O)[O-] | 1.8% | -2 | -6% | -12%
COc1ccc(NC(=O)COC(=O)CCCC2=NS(=O)(=O)c3ccccc3N2)cc1Cl | -0.9% | . | 5% | -4%
Cc1ccc(N2CCN(C(=O)c3nn(C)c4c3CS(=O)(=O)c3ccccc3-4)CC2)c(C)c1 | -0.4% | . | -3%&-3% | 25%
Cn1c(CN2CCCCC2)nc2cc(NC(=O)c3ccc(Cl)cc3)ccc21 | 8.0% | 1 | 19%&13% | 3%
COc1ccccc1OC(=O)c1ccc2nsnc2c1 | 1.7% | 4 | -4% | 1%
S=c1nc(C2CC2)n(-c2ccccc2)[nH]1 | 2.0% | 6 | -1% | 1%
Cc1nnc(NCCc2ccccc2)n(N)c1=O | -3.8% | -9 | 0% | 18%
O=S(=O)(NCCc1ccccn1)c1cc(Cl)cc(Cl)c1O | -2.1% | . | . | -1%
CCOC(=O)c1c(C)[nH]c(C)c1C(=O)CSc1nc(N)cc(N)n1 | 0.6% | -4 | -1% | -3%
COc1cccc(NC(=S)NNC(=O)c2c([N+](=O)[O-])c(C)nn2C)c1 | -2.9% | 2 | -2% | 11%
CCc1ccc(C(=O)CN2C(=O)NC3(CCCCCC3)C2=O)cc1 | 0.6% | . | . | -5%
CCOC(=O)C1(Cc2cccc(F)c2)CCN(Cc2ccon2)CC1 | 1.2% | 4 | -1% | 15%
Cc1cc(C(=O)NCC(c2ccco2)N(C)C)ccc1[N+](=O)[O-] (stereo not drawn) | -2.1% | . | -8% | 19%
O=C(CSc1ncnc2sc3c(c12)CCC3)Nc1ccccc1C(=O)O | 0.9% | 3 | -1% | 5%
CCN(CC(=O)Nc1c(F)cccc1F)C(=O)c1ccc(Cl)c(S(=O)(=O)N2CCCC2)c1 | -0.3% | . | . | 11%
Cc1c(N/C=C/C(=O)c2cccs2)c(=O)n(-c2ccccc2)n1C | 6.3% | -7 | -18% | 1%
COc1ccc(NC(=O)CCCCCn2nnc3ccccc3c2=O)cc1 | 0.1% | . | -5% | -14%
Cc1ccc(C)c(N2CCN(S(=O)(=O)c3c(C)noc3C)CC2)c1 | -0.2% | . | 0% | 6%
CC1=NN(C(N)=S)C(=O)C1N=Nc1cccc([N+](=O)[O-])c1 (stereo not drawn) | 0.8% | . | -3% | 9%
CCOC(=O)c1ccc(Nc2nc(C)cc(C)n2)cc1 | -0.3% | . | -13%&-23% | -8%
O=C(C1CCN(C2CC(=O)N(Cc3ccccc3)C2=O)CC1)N1CCCCCC1 (stereo not drawn) | -3.0% | -2 | 2% | 8%

Compound activity from PubChem BioAssay.

The list is partial; count on the stated rates, not on these rows.
